DUX4 txn inh: inhibitors of DUX4-driven ZSCAN4 reporter expression, primary screen, 293T cells, Gaussia and Italica luciferase; 293T-iDUX4 ZSCAN4-Gaussia luciferase reporter, 24 h; active compounds read low; activity change, negative = inhibition, % (concentration not given with the values); 37,000 compounds, 0.8% hits; AID 1224904, 2016;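 active = -10% or lower and over 25 points stronger than a control reporter; inconclusive = -10% or lower with a smaller gap; inactive = above -10%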;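 also: 0% = median of neutral control wells and -100% = median of positive control wells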
DUX4 txn inh difference: also measured in DUX4 txn inh; calls as there; Gaussia minus Italica difference, %; measured here: selective DUX4 reporter inhibition;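 worked out from the two reporters; negative = selective loss of the DUX4 reporter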
DUX4 txn inh control: further read-out of DUX4 txn inh, marked with its call; activity change, negative = inhibition, %; measured here: Italica tet-on control reporter;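 0 = neutral control and -100 = positive control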
Numbers without * were called inactive; ? = inconclusive; . = no result given; ! = not active in a repeat. This is a subset; count on the stated rates, not on these rows.

DUX4 txn inh	DUX4 txn inh difference	DUX4 txn inh control	structure
?	.	.	COc1ccc2c3c(n(C)c2c1)[C@@H](CO)NCC31CCN(S(=O)(=O)c2cccc(C)c2)CC1
16.5	13.5	3.0	COc1ccc(-c2ccc(C3[C@H]4CNC[C@@H]3N4S(=O)(=O)c3cn(C)cn3)cc2)cc1 (stereo partly drawn)
2.3	10.1	-7.8	O=C(CN1CCOCC1)N[C@H]1CC[C@H](CCn2cc(C3CC3)nn2)O[C@@H]1CO
12.8	2.0	10.8	COc1ccc(-c2ccc([C@@H]3[C@@H](CO)N4C(=O)CN(Cc5ccc(F)cc5)C[C@H]34)cc2)cc1
4.3	0.3	3.9	Cc1noc(C)c1S(=O)(=O)Nc1ccc2c(c1)C(=O)N([C@H](C)CO)C[C@H](C)[C@@H](CN(C)Cc1ccc(C(=O)O)cc1)OCCCC[C@H](C)O2
8.1	11.6	-3.5	CO[C@@H]1CN(C)C(=O)c2ccc(NS(C)(=O)=O)cc2OC[C@H](C)N(CC2CC2)C[C@H]1C
-36.7*	-27.8*	-8.9*	CN1c2ccc(C#Cc3cccnc3)cc2[C@@H]2[C@@H](CCN2C(=O)c2cccc(F)c2)[C@H]1CO
-3.6	-2.0	-1.6	COC(=O)C[C@H]1C[C@H]2c3cc(NC(=O)Cc4ccncc4)ccc3O[C@H]2[C@H](CO)O1
-1.8	-5.0	3.2	C[C@H](CO)N1C[C@H](C)[C@@H](CN(C)Cc2ccc(C(F)(F)F)cc2)Oc2ccc(NC(=O)CCN3CCOCC3)cc2C1=O
-0.2	0.5	-0.7	CC(=O)N1[C@H](CO)[C@H](c2ccccc2)[C@H]1CNC(=O)CN1CCOCC1
-1.1	-1.2	0.2	COc1ccc(S(=O)(=O)Nc2ccc3c(c2)C(=O)N([C@H](C)CO)C[C@@H](C)[C@@H](CN(C)C(=O)NC2CCCCC2)O3)cc1
5.2	10.2	-5.0	O=C(Nc1ccccc1F)N1CC(=O)N2[C@H](C1)[C@H](c1ccc(C#CC3CC3)cc1)[C@@H]2CO
-53.2*!	-28.5*	-24.7*	N#Cc1ccc(-c2ccc(C3[C@@H]4CN(C(=O)Cc5ccccc5)C[C@H]3N4)cc2)cc1 (stereo partly drawn)
7.4	2.4	5.0	C[C@@H]1CN([C@@H](C)CO)C(=O)c2c(c3ccccc3n2C)-c2ccccc2CO[C@@H]1CN(C)Cc1cccc(C(=O)O)c1
8.7	22.5	-13.8	CC(C)CC#Cc1cnc2c(c1)C(=O)N([C@@H](C)CO)C[C@@H](C)[C@@H](CN(C)C(=O)c1cccnc1)O2
16.6	-0.8	17.4	CN(C)C(=O)c1cccc(-c2ccccc2[C@@H]2[C@@H](C#N)N(C(=O)C3CC3)[C@H]2CO)c1
-2.3	-1.7	-0.6	CNC[C@@H]1Oc2ccc(NC(=O)C3CCCCC3)cc2C(=O)N([C@H](C)CO)C[C@@H]1C
?	.	.	N#Cc1ccc(-c2ccc3c(c2)[C@H]2[C@H](CCN2S(=O)(=O)c2cccc(F)c2)[C@H](CO)N3)cc1
?	.	.	COc1ccccc1NC(=O)N1CCCCN2[C@H](CO)[C@H](c3ccc(-c4cccc(C#N)c4)cc3)[C@@H]2C1
-1.2	5.0	-6.2	O=C(NCC[C@@H]1CC[C@H](NS(=O)(=O)c2ccc(F)cc2)[C@H](CO)O1)c1ccc2c(c1)OCO2
11.6	9.2	2.4	COCC(=O)N1[C@@H](CO)[C@@H](c2ccccc2)C12CN(C(=O)c1cccc(F)c1)C2
16.9	12.5	4.4	COc1cccc(-c2ccc([C@@H]3[C@@H](CO)N4C(=O)CN(C(=O)NC(C)C)C[C@H]34)cc2)c1
?	.	.	CS(=O)(=O)N1[C@@H](CO)[C@@H](c2ccccc2)C12CN(Cc1cc(F)ccc1F)C2
6.4	-1.7	8.1	OC[C@@H]1[C@H](c2ccc(-c3cccc(F)c3)cc2)[C@H]2CN(Cc3cncnc3)CCCCN12
-40.1*	-26.2*	-13.8*	CC(C)C#Cc1ccc([C@H]2[C@@H](CO)N3CCCCN(C(=O)c4ccc(F)cc4)C[C@H]23)cc1
3.0	3.1	-0.1	O=C(C[C@@H]1C=C[C@@H](NC(=O)Nc2ccccc2F)[C@@H](CO)O1)NCc1ccc(-c2ccccc2)cc1
6.8	5.2	1.6	C/C=C/c1ccccc1[C@@H]1[C@H](C#N)N(C(=O)Cc2ccccn2)[C@H]1CO
7.9	3.6	4.3	O=C([C@@H]1[C@@H](CO)[C@@H]2Cn3c(ccc(-c4ccncc4)c3=O)[C@H]1N2Cc1ccccc1)N1CCOCC1
-3.2	-8.7	5.5	O=C(C[C@@H]1CC[C@H]2[C@@H](COC[C@@H](O)CN2C(=O)Nc2ccc3c(c2)OCO3)O1)N1CCN(c2ccccc2)CC1
-1.0	-1.2	0.2	N#C[C@@H]1[C@@H](c2ccc(C#Cc3cccc(F)c3)cc2)[C@H](CO)N1C(=O)C1CCC1
-5.6	5.3	-11.0	CCCC(=O)N1CC2(C1)CN(C(=O)Nc1cccc(F)c1)[C@H](CO)c1c2c2ccc(OC)cc2n1C
21.3	16.2	5.0	O=C(C[C@@H]1CC[C@@H]2[C@H](COC[C@@H](O)CN2S(=O)(=O)c2ccccc2)O1)NCCN1CCCC1
-9.6	-14.4	4.9	COc1cccc(NC(=O)Nc2ccc3c(c2)C(=O)N(C)C[C@@H](OC)[C@@H](C)CN(CC2CC2)[C@H](C)CO3)c1
-3.8	-5.1	1.3	CO[C@H]1CN(C)C(=O)c2ccc(NC(=O)C3CCC3)cc2OC[C@@H](C)NC[C@@H]1C
6.1	-8.9	15.0	Cn1cnc(CCNC(=O)C[C@@H]2CC[C@H]3[C@@H](COC[C@@H](O)CN3C(=O)Nc3ccc(Cl)cc3)O2)c1
8.5	10.4	-1.9	COc1cccc(S(=O)(=O)Nc2ccc3c(c2)[C@@H]2C[C@@H](CC(=O)N4CCCCC4)O[C@@H](CO)[C@@H]2O3)c1
4.5	8.9	-4.5	Cc1ccc(-c2ccccc2[C@H]2[C@@H](C#N)N(C(=O)Cc3cccnc3)[C@H]2CO)cc1
4.7	-2.1	6.8	CCCNC(=O)NC[C@H]1[C@@H](c2ccc(C3=CCCC3)cc2)[C@H](CO)N1C(=O)CC
-2.2	-2.9	0.7	N#C[C@@H]1[C@@H](c2ccc(C#Cc3cccc(F)c3)cc2)[C@@H](CO)N1C(=O)C1CCCC1
-2.2	1.2	-3.4	CCS(=O)(=O)NCC[C@H]1CC[C@H](NC(=O)Nc2cc(Cl)cc(Cl)c2)[C@@H](CO)O1
0.0	-3.5	3.5	CN1C(=O)c2cc(NC(=O)c3ccc(C(F)(F)F)cc3)ccc2OC[C@H]2O[C@@H](CC(=O)NCc3ccc4c(c3)OCO4)CC[C@H]21
12.9	12.0	0.9	CCC(=O)N1CCC2(CC1)CN(C(=O)NC1CCCC1)[C@H](CO)c1c2c2ccc(OC)cc2n1C
?	.	.	COc1ccc2c3c(n(C)c2c1)[C@H](CO)N(Cc1ccccc1)CC31CCN(CC2CC2)CC1
?	.	.	CN1C(=O)c2cc(NC(=O)c3ccc(Cl)cc3)ccc2OC[C@@H]2O[C@@H](CC(=O)NCc3cccc(F)c3)CC[C@@H]21
-5.0	-0.7	-4.2	CCS(=O)(=O)N1[C@H](CO)[C@@H](c2ccc(C#CCC3CCCC3)cc2)[C@@H]1C#N
2.7	4.8	-2.1	CCCNC(=O)C[C@H]1CC[C@H]2[C@@H](COC[C@H](O)CN2Cc2ccncc2)O1
11.9	6.1	5.7	CCCC#Cc1ccc2c(c1)[C@@H]1[C@@H](CCN1S(=O)(=O)c1ccc(C)cc1)[C@@H](CO)N2C
5.5	7.2	-1.7	COc1ccccc1S(=O)(=O)N(C)C[C@H]1OCc2ccccc2-c2ccccc2C(=O)N([C@H](C)CO)C[C@@H]1C
-1.1	0.2	-1.3	Cc1ccc(S(=O)(=O)Nc2ccc3c(c2)C(=O)N([C@@H](C)CO)C[C@@H](C)[C@@H](CN(C)C(=O)NC2CCCCC2)OCCCC[C@H](C)O3)cc1
-7.9	-2.6	-5.3	COc1ccc(S(=O)(=O)N2C[C@@H](O)COC[C@@H]3O[C@@H](CC(=O)NCCN4CCCCC4)CC[C@H]32)cc1

(next part)
DUX4 txn inh	DUX4 txn inh difference	DUX4 txn inh control	structure
3.7	1.1	2.5	C/C=C/c1ccc([C@H]2[C@@H](CO)N(C(=O)CC)[C@@H]2CN(C)C(=O)NC(C)C)cc1
-6.1	-7.5	1.4	COc1ccc(NC(=O)Nc2ccc3c(c2)[C@H]2C[C@H](CC(=O)NCCc4ccccc4)O[C@@H](CO)[C@H]2O3)cc1
-0.9	-3.4	2.5	CO[C@H]1CN(C)C(=O)c2ccc(NC(=O)c3ccc(F)cc3)cc2OC[C@@H](C)N(C(=O)CN(C)C)C[C@@H]1C
-7.3	-10.2	2.8	COCC(=O)N(C)C[C@H]1[C@H](c2ccccc2)[C@@H](CO)N1C(=O)Cc1ccncc1
-8.6	-13.0	4.4	O=C([C@H]1[C@H](CO)[C@H]2Cn3c(ccc(-c4ccccc4)c3=O)[C@@H]1N2Cc1cccnc1)N1CCOCC1
-0.5	-2.3	1.8	CO[C@@H]1CN(C)C(=O)c2ccc(NC(=O)C3CC3)cc2OC[C@H](C)N(Cc2nccs2)C[C@@H]1C
-5.3	-8.4	3.1	N#Cc1cccc(-c2ccc3c(c2)[C@H]2[C@H](CCN2S(=O)(=O)c2ccc(F)cc2)[C@H](CO)N3)c1
-0.6	1.9	-2.5	CN1c2ccc(C3=CCCCC3)cc2[C@H]2[C@H](CCN2S(=O)(=O)c2ccccc2)[C@@H]1CO
-1.2	1.0	-2.2	COc1ccccc1-c1ccc([C@H]2[C@@H](CO)N(C(=O)C3CCOCC3)[C@H]2C#N)cc1
-2.2	-2.2	-0.1	O=C(c1ccccn1)N1CC2(C1)[C@H](c1ccccc1)[C@H](CO)N2C(=O)CC1CC1
2.5	-1.9	4.4	CCCC#Cc1ccc([C@@H]2[C@@H](CO)N(C(=O)CN3CCOCC3)[C@H]2C#N)cc1
3.2	-2.5	5.7	Cc1cccc(S(=O)(=O)N[C@@H]2CC[C@@H](CCNC(=O)Nc3cc(F)ccc3F)O[C@H]2CO)c1
?	.	.	COc1ccccc1NC(=O)N1CCCCN2[C@H](CO)[C@@H](c3ccc(-c4cccc(C#N)c4)cc3)[C@@H]2C1
6.0	4.3	1.7	O=C(CN1CCOCC1)N1CC[C@@H]2[C@H]1c1cc(-c3ccccc3F)ccc1N[C@@H]2CO
1.2	1.5	-0.3	CCCNC(=O)Nc1ccc2c(c1)C(=O)N(C)[C@H]1CC[C@@H](CC(=O)NCc3ccccc3)O[C@@H]1CO2
-0.1	-0.7	0.6	COc1ccc(S(=O)(=O)Nc2ccc3c(c2)C(=O)N([C@@H](C)CO)C[C@H](C)[C@H](CN(C)C(=O)c2ccncc2)OCCCC[C@H](C)O3)cc1
20.4	8.9	11.5	CN(C)C(=O)c1cccc(-c2ccc([C@@H]3[C@H](CO)N4CCCCN(CC5CCOCC5)C[C@@H]34)cc2)c1
-2.4	-9.8	7.4	C[C@@H]1CN([C@@H](C)CO)C(=O)Cc2cc(NC(=O)C3CC3)ccc2O[C@H]1CN(C)S(=O)(=O)c1cn(C)cn1
11.3	4.6	6.7	CCC(=O)N1[C@H](CO)[C@@H](c2ccccc2)C12CN(C(=O)c1ccncc1)C2
-2.8	-0.7	-2.1	CC(C)NC(=O)N(C)C[C@@H]1OCc2cn(nn2)CCCC(=O)N([C@@H](C)CO)C[C@@H]1C
9.0	-2.6	11.7	CCC(=O)N1CC(=O)N2[C@H](CO)[C@@H](c3ccc(-c4ccc(C#N)cc4)cc3)[C@H]2C1
-0.3	-5.9	5.6	COc1ccc2c3c(n(C)c2c1)[C@@H](CO)N(C(=O)C1CCCCC1)CC31CN(C(=O)c2ccncc2)C1
2.2	0.4	1.8	CCCC(=O)Nc1ccc2c(c1)C(=O)N(C)[C@@H]1CC[C@@H](CC(=O)NCC(F)(F)F)O[C@@H]1CO2
8.4	-12.4	20.8	COCC(=O)N1CC2(C1)CN(C(=O)Nc1ccccc1F)[C@H](CO)c1c2c2ccc(OC)cc2n1C
5.5	4.2	1.2	N#C[C@H]1[C@@H](c2ccccc2-c2ccccc2F)[C@H](CO)N1C(=O)C1CC1
0.0	-3.2	3.2	COc1cccc(NC(=O)C[C@@H]2CC[C@@H]3[C@H](COc4ccc(NS(=O)(=O)c5cccc(F)c5)cc4C(=O)N3C)O2)c1
-2.2	3.4	-5.6	C[C@@H]1CN([C@H](C)CO)C(=O)CCCn2cc(nn2)CO[C@H]1CN(C)Cc1ccccc1
-4.6	12.5	-17.1	COc1cccc(S(=O)(=O)Nc2ccc3c(c2)C(=O)N(C)[C@@H]2CC[C@H](CC(=O)NCC4CCCCC4)O[C@H]2CO3)c1

5 entries from above, set out differently:
Compound	DUX4 txn inh	DUX4 txn inh difference	DUX4 txn inh control
C/C=C/c1ccc([C@H]2[C@@H](CO)N(C(=O)CC)[C@@H]2CN(C)C(=O)NC(C)C)cc1	3.7	1.1	2.5
COc1ccc(NC(=O)Nc2ccc3c(c2)[C@H]2C[C@H](CC(=O)NCCc4ccccc4)O[C@@H](CO)[C@H]2O3)cc1	-6.1	-7.5	1.4
CO[C@H]1CN(C)C(=O)c2ccc(NC(=O)c3ccc(F)cc3)cc2OC[C@@H](C)N(C(=O)CN(C)C)C[C@@H]1C	-0.9	-3.4	2.5
COCC(=O)N(C)C[C@H]1[C@H](c2ccccc2)[C@@H](CO)N1C(=O)Cc1ccncc1	-7.3	-10.2	2.8
O=C([C@H]1[C@H](CO)[C@H]2Cn3c(ccc(-c4ccccc4)c3=O)[C@@H]1N2Cc1cccnc1)N1CCOCC1	-8.6	-13.0	4.4

Screening results (PubChem BioAssay)
